Autofluor counter: compound fluorescence in toxin protease inhibitor counterscreen. compound autofluorescence counterscreen, microsphere flow cytometry; hits give high values. fluorescence intensity (no concentration beside the values). hit rate 3.1% among 360,000;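 active = at least 3 SD above the mean of all compounds, about 16000 in these data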;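 note: 100 nL of 1 mM stock went into each well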
* marks the source's active call; other numbers are inactive results; & = joins results of further samples. Only part of the results is shown; the hit share may differ from the screen's.

SMILES | Autofluor counter
O=C1NC[C@H](CCCCN2C[C@H](Cc3ccc(O)cc3)N(CCc3ccc(O)cc3)C(=O)C2=O)N(CCc2ccc(O)cc2)C1=O | 6016
Cn1c(N)c(C#N)c(-c2ccccc2)c(C#N)c1=O | 3410
COc1ccc(Cc2c(-c3cccc(Br)c3)nc3ccc(Br)cn23)c(C)c1 | 4327
COc1ccc(CC(=O)N(C)c2ccccc2)cc1S(=O)(=O)N1CCOCC1 | 3712
CC(C)N1CC2(CC(c3ccccc3F)=NO2)CN1C(=O)c1ccc(C(C)(C)C)cc1 (stereo unspecified) | 3428
CCOC(=O)C1=CC[C@@H](c2ccccc2C(F)(F)F)N(S(=O)(=O)c2ccc(C)cc2)[C@H]1c1ccc(C#N)cc1 | 6142
COc1ccc(CN(C)C[C@H]2OCCCC[C@@H](C)Oc3ccc(NS(C)(=O)=O)cc3C(=O)N([C@H](C)CO)C[C@@H]2C)cc1 | 3867
OCCC#Cc1ccc(N2C(c3ccsc3)=Cc3ccc(F)cc3C2c2c[nH]c3ccccc23)cc1 (stereo unspecified) | 4910
Brc1ccc2nc(C3CCCCC3)c(CC3CCCCC3)n2c1 | 5300
CC(=NC1CCCCC1)c1ccc(O)cc1O | 3439
CCC(CC)C(=O)N(C)c1c(C)nc2c(OCc3ccc(C(F)(F)F)cc3)cccn12 | 3426
CCC(=O)N1CCCC1(C)C(=O)Nc1ccc2nc(C)ccc2c1 (stereo unspecified) | 4128
CCOC1=C2[C@@H](CN(S(=O)(=O)c3ccc(C)cc3)[C@H]2c2ccccc2)[C@H]2C(=O)N(Cc3ccccc3)C(=O)[C@H]2C1 | 4444
CC1ON=C(c2cccc3ccccc23)N(C)C1=O (stereo unspecified) | 5721
CCCCC(=O)N(C)c1c(C)nc2ccc(C(=O)N(C)CCN(C)C)cn12 | 4753
O=C(NC(c1ccccc1)c1ccc2ccccc2n1)C1CCN(CCOc2ccc(Cl)cc2)CC1 (stereo unspecified) | 3657
CN(C)C(=O)c1cccc(-c2cccc3nccn23)c1 | 3934
CC1CCCC(NC(=O)COC(=O)C2=COCCO2)C1C (stereo unspecified) | 3469
N#Cc1ccccc1S(=O)(=O)N1CCN(Cc2cc3c(cc2Br)OCCO3)CC1 | 4020
CC(=NNC(=S)N1CCCCC1)c1ccccn1 | 3169
CCCCOCCCNC(=O)C[C@@H]1C[C@@]2(C(=O)OCC)CCCC=C2N(Cc2ccc(Cl)cc2Cl)C1=O | 4499
c1ccc(N2Cc3ccccc3-n3nncc3C2)nc1 | 3443
CCCC(=O)N1CCC1(C)C(=O)Nc1ccc(C)c(C)c1 (stereo unspecified) | 3333
COc1ccc(CNC(=O)CCNC(=O)N2CC(=O)Nc3ccccc32)cc1 | 3933
CN1CCN(c2ccc(-c3cc(NC=O)c4ncc(-c5ccc(F)c(Cl)c5)n4c3)cc2)CC1 | 4428
COC1=CC(=NCl)C=CC1=NCl | 4160
CCCCCC(=O)N1C[C@@H](n2cc(C3CC3)nn2)[C@H](O)C[C@@H]1c1ccc(Cl)cc1 | 3333
O=C1C=C(C#Cc2ccc(Oc3ccccc3)cc2)C[C@@H](c2ccc(F)cc2)C1 | 3723
O=C(NNC(=O)c1ccccc1F)c1ccc(-c2ccccc2Cl)o1 | 4073
CCN(CC)C(=O)C1=C(C)N(Cc2ccc(C(C)(C)C)cc2)C(=O)C(CC(=O)NCCCCc2ccccc2)C1 (stereo unspecified) | 3407

Sorted by count of non-hydrogen atoms (low to high): some entries from above.
SMILES | Autofluor counter
COC1=CC(=NCl)C=CC1=NCl | 4160
CC(=NNC(=S)N1CCCCC1)c1ccccn1 | 3169
CC1ON=C(c2cccc3ccccc23)N(C)C1=O (stereo unspecified) | 5721
CN(C)C(=O)c1cccc(-c2cccc3nccn23)c1 | 3934
CC1CCCC(NC(=O)COC(=O)C2=COCCO2)C1C (stereo unspecified) | 3469
O=C(NNC(=O)c1ccccc1F)c1ccc(-c2ccccc2Cl)o1 | 4073
CCCCC(=O)N(C)c1c(C)nc2ccc(C(=O)N(C)CCN(C)C)cn12 | 4753
COc1ccc(CNC(=O)CCNC(=O)N2CC(=O)Nc3ccccc32)cc1 | 3933
O=C1C=C(C#Cc2ccc(Oc3ccccc3)cc2)C[C@@H](c2ccc(F)cc2)C1 | 3723
CN1CCN(c2ccc(-c3cc(NC=O)c4ncc(-c5ccc(F)c(Cl)c5)n4c3)cc2)CC1 | 4428
O=C(NC(c1ccccc1)c1ccc2ccccc2n1)C1CCN(CCOc2ccc(Cl)cc2)CC1 (stereo unspecified) | 3657
CCCCOCCCNC(=O)C[C@@H]1C[C@@]2(C(=O)OCC)CCCC=C2N(Cc2ccc(Cl)cc2Cl)C1=O | 4499
CCN(CC)C(=O)C1=C(C)N(Cc2ccc(C(C)(C)C)cc2)C(=O)C(CC(=O)NCCCCc2ccccc2)C1 (stereo unspecified) | 3407

Later entries.
SMILES | Autofluor counter
CC(=O)Nc1cccc(-c2ccnc3c2CC(C(=O)NCc2cccnc2)O3)c1 (stereo unspecified) | 3778
OC(c1ccc(F)cc1)c1ncc(-c2ccccc2F)[nH]1 (stereo unspecified) | 3878
COCCn1c(SCC(=O)Nc2ccc(F)cc2)nc2c(c1=O)SCC2 | 2973
O=S(=O)(c1cccc2ccccc12)N1Cc2ccccc2-n2nncc2C1 | 3723
O=C(c1ccccc1)N1CCN(c2cc(Cl)nc3cc(-c4cccc(Cl)c4)nn23)CC1 | 2863
CN(c1ccccc1)S(=O)(=O)c1ccc(C(=O)Nc2cccc(S(=O)(=O)N3CCOCC3)c2)cc1 | 3450
O=[N+]([O-])c1cnc(Sc2ccncn2)c([N+](=O)[O-])c1 | 3962
CN(C)c1ccc(-c2csc(C(O)c3cccc(Cl)c3)n2)cc1 (stereo unspecified) | 2884
CCN(CC)C(=O)c1cccc(-c2csc(C(O)c3ccco3)n2)c1 (stereo unspecified) | 2900
COc1cc(-c2cnc3c(NC(C)=O)cc(-c4cccc(C(=O)NCCO)c4)cn23)cc(OC)c1OC | 3984
CC(C)(C)n1nnnc1C(c1ccccc1)N1CCN(c2ncccc2C(F)(F)F)CC1 (stereo unspecified) | 5091&5634
CC(=O)Nc1cccc(C(=O)NNC(=O)c2ccc(NS(=O)(=O)c3cccs3)cc2)c1 | 3569
O=c1c2ccccc2nc2n1CCc1ccc(Br)cc1-2 | 4270
CC1(C(=O)Nc2ccccc2Br)CCN1C(=O)CC1CC1 (stereo unspecified) | 4641
CSc1ccc(Cn2c(C)c(C(=O)NCc3ccc(Cl)c(Cl)c3)sc2=O)cc1 | 5002
CCNC(=O)C1(C)CCCN1Cc1cccc(C(F)(F)F)c1 (stereo unspecified) | 3693
CC1(C(=O)NCc2cccc(C(F)(F)F)c2)CCN1CCc1ccccc1 (stereo unspecified) | 5060
Cc1cc(C)c(C#N)c(OCC2CCCO2)n1 (stereo unspecified) | 6319
C[C@H](CO)N1C[C@H](C)[C@@H](CN(C)Cc2ccccn2)Oc2ncc(-c3ccccc3)cc2C1=O | 2954
Cc1ccc(COC[C@H](CC(C)C)N2CCN(C(=O)c3cccc(C(F)(F)F)c3)CCC2=O)cc1 | 5852
O=C1c2cccc3cccc(c23)C(=O)N1Cc1ccccn1 | 4048
COCCCN1C(=O)C(CC(=O)NCC2CCCCC2)CC(C(=O)N(C(C)C)C(C)C)=C1C (stereo unspecified) | 5444
CC1(C(=O)NS(=O)(=O)c2ccccc2C(F)(F)F)CCN1C(=O)CCc1cccs1 (stereo unspecified) | 3605
O=C(NCc1nnnn1-c1ccc(F)cc1)c1ccc2ccccc2c1 | 3950
Cc1cccc(CN(C)C[C@H]2OCc3cnnn3CCCC(=O)N([C@@H](C)CO)C[C@@H]2C)c1 | 3965
Cc1ccccc1NC(=O)Nc1nc(C2CCC(=O)N2)cs1 (stereo unspecified) | 3882
S=c1[nH]c2nc(Cl)c(Cl)nc2[nH]1 | 3177
COc1ccc(CN2CCNC(=O)C2CC(=O)N(C)C2CCOCC2)cc1OC (stereo unspecified) | 3780
COc1cc(F)ccc1-c1cc(C(=O)Nc2cc(OC)c(OC)c(OC)c2)[nH]n1 | 3135
CCc1nc2ccc(C(=O)Nc3ccc(OC)c(OC)c3)cn2c1N(C)C(=O)Cc1ccccc1 | 3870
CS(=O)(=O)c1ccc(-c2cc(NC=O)c3ncc(-c4ccc(F)cc4)n3c2)cc1 | 3914
Cc1ccccc1-c1cc2nc(NCCOc3ccccc3)n(C)c(=O)c2s1 | 3762
O=C(NCCN1CCOCC1)c1cc(-c2ccccc2)nc2ccccc12 | 3619
CCCCCCCCC(c1nc2ccccc2[nH]1)N1CCN=C1c1cc2ccccc2[nH]1 (stereo unspecified) | 6138
CCc1nc2c(OCCC3CCCCC3)cccn2c1N(C)C(=O)C(C)C | 3860
CN(CCc1ccccc1)C(C(=O)Nc1ccc2c(c1)OCCO2)C1CC1 (stereo unspecified) | 4407
O=C(CCCn1c(=S)[nH]c2cc3c(cc2c1=O)OCO3)NCCc1ccc(Cl)cc1 | 2981
CC(C)CC(N)c1csc(Nc2ccc(C(=O)N(C)Cc3ccccc3)cn2)n1 (stereo unspecified) | 3660
COc1ccc(N2C[C@H](C)[C@@H](CC(=O)Nc3ccccc3)C2=O)cc1 | 2828
Cc1ccc([C@H]2C[C@@H](O)[C@H](n3cc(COC(=O)c4ccccc4)nn3)CN2C(=O)C2CCCCC2)cc1 | 4881
CCc1nc2ccc(C(=O)NCc3ccccc3OC)cn2c1N(CC)Cc1cccc(Br)c1 | 4186
O=C(NCC1CC1)c1cc2c(c(-c3cccc(-c4ccccc4F)c3)n1)[C@@H](CCO)N(C(=O)CC1CC1)C2 | 6328
CCN1CCN(c2ccc(N3CCN(S(=O)(=O)c4cccc([N+](=O)[O-])c4)CC3)nn2)CC1 | 3890
Cc1cccc(CN2CCN([C@@H]3CS(=O)(=O)N[C@H]3COCc3ccccc3)CC2)c1 | 6030
CN1OC[C@@H]2CN(S(=O)(=O)c3ccccc3)[C@H](c3ccccc3Br)C[C@@H]21 | 5504
CCC1Cc2[nH]c(=S)[nH]c(=O)c2C(c2ccc(F)cc2)O1 (stereo unspecified) | 6204
CC(C)COC(=O)N1CCCCC1c1cc(C(=O)NCc2ccccc2)no1 (stereo unspecified) | 3678
CCOC(=O)C=Cc1ccc(C(=O)OCC)[nH]1 | 3628
COc1ccc(CN(C)C(=O)[C@H]2O[C@@H](n3ccc(N)nc3=O)[C@H](O)[C@@H]2O)cc1OC | 6140
O=C(Nc1ccc(F)c(Cl)c1)c1csc([C@H]2C[C@H](O)[C@@H](CO)O2)n1 | 3861

Carrying on:
SMILES | Autofluor counter
O=C(Nc1nc2ccc(F)cc2s1)c1ccc([N+](=O)[O-])o1 | 3050
CC(C)C[C@@H]1O[C@H](CCc2ccccc2)CC2=C1C(=O)OC(C)(C)O2 | 6192&4773
O=C(CC[C@H]1O[C@@H](n2cnc3c(NC(=O)c4ccccc4)ncnc32)[C@H](O)[C@@H]1O)NCc1ccc2c(c1)OCO2 | 4279
CC1NC(=O)c2cc3ccccc3cc2-n2c1nc1ccccc1c2=O (stereo unspecified) | 3724
CN(C)S(=O)(=O)Nc1ccc(Cc2ccncc2)cc1 | 3821
CCc1cccc(NC(=O)COC(=O)C2COc3ccccc3O2)c1 (stereo unspecified) | 3048
CC[C@@H]1CC2=C(C(=O)OC(C)(C)O2)[C@H](c2ccc(F)cc2)O1 | 5587
COc1ccccc1-c1csc(C(NC(C)=O)c2ccc(F)c(F)c2)n1 (stereo unspecified) | 2850
O=C1[C@H]2[C@@H](c3ccccc3)N[C@]3(CCCN(Cc4ccccc4)C3=O)[C@H]2C(=O)N1Cc1ccccc1 | 3302
CC(C)COC(=O)N(C)C[C@@H]1OCc2cnnn2CCCC(=O)N([C@H](C)CO)C[C@H]1C | 3116
O=C(OCc1cn([C@H]2CN(C(=O)c3cccs3)[C@@H](c3ccccc3)C[C@@H]2O)nn1)c1ccccc1 | 2956
O=C(O)c1cccc(-c2csc(C(O)c3cccc(Cl)c3)n2)c1 (stereo unspecified) | 3403
Cc1ccc(-c2csc(C(C)(O)c3cccc(F)c3)n2)cc1C (stereo unspecified) | 3675
CCC(=O)N1CCC1(C)C(=O)Nc1cc(OC)ccc1OC (stereo unspecified) | 4180
O=S1(=O)CC(N2CCN(c3ccccn3)CC2)CN1Cc1ccc(F)cc1 (stereo unspecified) | 5974
CCOC(=O)Cc1ccc(Nc2nc3cc(-c4ccccc4C)sc3c(=O)n2C)cc1 | 2892
CCOC(=O)C1(C)CCN1C(=O)CSc1ccccc1 (stereo unspecified) | 3057
CC1(C(=O)NS(=O)(=O)c2cccc(Cl)c2)CCN1C(=O)CCc1cccs1 (stereo unspecified) | 3814
COCCNC(=O)C1CCCN(C(=O)c2nc(C)oc2C)CC1 (stereo unspecified) | 2952
CCC[C@H]1CN(c2ccc(Br)cc2)C(=O)[C@@H]1CC(=O)NC | 3081

A draw from above in order of formula weight, smallest number first.
SMILES | Autofluor counter
CCOC(=O)C1(C)CCN1C(=O)CSc1ccccc1 (stereo unspecified) | 3057
CCOC(=O)Cc1ccc(Nc2nc3cc(-c4ccccc4C)sc3c(=O)n2C)cc1 | 2892
O=C(OCc1cn([C@H]2CN(C(=O)c3cccs3)[C@@H](c3ccccc3)C[C@@H]2O)nn1)c1ccccc1 | 2956

More records follow:
SMILES | Autofluor counter
OC[C@@H]1CN(Cc2ccc3c(c2)OCO3)C[C@H](n2cnc3c(N4CCN(c5ccccc5)CC4)ncnc32)O1 | 2889
CC(C)C[C@@H](CN1CCC[C@@H]1CN1C(=S)NC[C@@H]1Cc1ccccc1)N1C[C@H](Cc2ccc(O)cc2)N(CC2CCCCC2)C1=S | 5637
COc1cccc(-c2nc(-c3ccccc3)c3ccc(Cl)cc3n2)c1 | 4483
COc1cc(NC(=O)N2CCc3nc(NCc4cccc(Oc5ccccc5)c4)ncc3C2)cc(OC)c1OC | 3077
O=[N+]([O-])c1ccccc1SNc1ccccc1 | 3718
CCNC(=O)C1(C)CCCCN1Cc1ccc(C#N)cc1 (stereo unspecified) | 2932
CCC(c1nnnn1-c1ccc2c(c1)OCCO2)N1CCN(c2ccc(F)cc2)CC1 (stereo unspecified) | 4975
C[C@@H]1CN([C@H](C)CO)C(=O)c2cc(Br)cnc2O[C@H]1CN(C)C(=O)Nc1ccccc1F | 2957
CCc1noc(C)c1C(=O)N1CCCC(Nc2cccc(F)c2)C1 (stereo unspecified) | 4365
CCOc1ccccc1CNn1cnnc1SCC(=O)NC(C)(C)C | 3701
Fc1ccc(Nc2nc(NCc3cccs3)nc3ccsc23)cc1 | 4011
Cc1cccc(CN2CCN([C@H]3CS(=O)(=O)N[C@@H]3COCc3ccccc3)CC2)c1 | 5674

Source: PubChem
